mut p53 SMM: binders of human mutant p53, primary screen, biochemical, small molecule microarray, anti-GST fluorescence | 17,000 tested, 0.4% active | calls only | mutant tumor protein p53 (GST-tagged), Homo sapiens | small molecule microarray binding;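 active = compounds whose four printed spots each glow above background more than chance allows, each with a p-value under 7%; compounds were printed on slides so no solution concentration is given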;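 note: about 2 pmol printed per array spot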
Myc binder: binders of human c-Myc, primary screen, biochemical, small molecule microarray, anti-His fluorescence | Myc proto-oncogene protein (Homo sapiens), P01106 | His-c-Myc binding | calls only | 17,000 tested, 1.5% active;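 active = spot fluorescence over background with P-value below 7% in all four replicate spots, showing protein binding; compounds were printed on slides so no solution concentration is given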;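 note: score is binary with 100 for all four spots passing and 0 otherwise; about 2 pmol printed per array spot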
Target sequence (P01106 whole entry, looked up): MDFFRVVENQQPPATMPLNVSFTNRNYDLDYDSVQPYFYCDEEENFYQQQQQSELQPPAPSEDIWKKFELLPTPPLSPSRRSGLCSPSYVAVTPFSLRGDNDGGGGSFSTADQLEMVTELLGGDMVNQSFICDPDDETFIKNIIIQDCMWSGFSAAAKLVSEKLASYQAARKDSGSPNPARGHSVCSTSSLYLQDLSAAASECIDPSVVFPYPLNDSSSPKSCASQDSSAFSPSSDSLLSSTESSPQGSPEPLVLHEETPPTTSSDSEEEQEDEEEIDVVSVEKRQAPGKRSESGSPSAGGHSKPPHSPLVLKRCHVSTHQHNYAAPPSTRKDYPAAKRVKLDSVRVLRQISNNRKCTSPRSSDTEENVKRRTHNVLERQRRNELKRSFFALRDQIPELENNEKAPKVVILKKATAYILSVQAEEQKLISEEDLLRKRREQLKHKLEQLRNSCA
STAT3 SMM: STAT3 binders, primary screen, biochemical, small molecule microarray, single point, set 2. calls only. Signal transducer and activator of transcription 3 (Homo sapiens), P40763. His-STAT3 binding, anti-His fluorescence. 17,000 tested, 0.2% active;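 active = compounds whose four printed spots each show fluorescence over background unusually high for their array block, chance value under 7%; compounds were printed on slides so no solution concentration is given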;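 note: about 2 pmol printed per array spot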
ID4 SMM: binders of human ID4 protein, primary screen, biochemical, small molecule microarray, single point; DNA-binding protein inhibitor ID-4 (Homo sapiens), P47928; Flag-ID4 binding, fluorescence F/B; calls only; 31,000 tested, 1.2% active; AID 624137, 2012;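 active = spot signal over background at p below 0.07 in all four prints; compounds were printed on slides so no solution concentration is given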;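 note: a binder raises fluorescence above local background on the spot; about 2 pmol printed per array spot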
Target sequence (P47928 whole entry, looked up): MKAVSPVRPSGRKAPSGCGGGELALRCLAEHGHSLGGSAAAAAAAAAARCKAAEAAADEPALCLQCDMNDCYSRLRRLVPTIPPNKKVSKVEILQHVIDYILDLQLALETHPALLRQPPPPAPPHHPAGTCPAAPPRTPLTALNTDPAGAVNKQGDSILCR
Calls only; i = inactive; / = no result given; + = active, no number. A portion of the library; rates above refer to the full screens.

SMILES	mut p53 SMM	Myc binder	STAT3 SMM	ID4 SMM
Cc1noc(C)c1NC(=O)N(C)C[C@H]1OCCCC[C@H](C)Oc2ccc(NC(=O)NC(C)C)cc2C(=O)N([C@H](C)CO)C[C@@H]1C	i	i	i	/
Cc1noc(C)c1S(=O)(=O)Nc1ccc2c(c1)C(=O)N([C@@H](C)CO)C[C@@H](C)[C@H](CN(C)C(=O)Cc1ccccc1)OCCCC[C@@H](C)O2	i	i	i	i
CC(C)NC(=O)N(C)C[C@H]1Oc2ccc(NC(=O)CCCN(C)C)cc2CC(=O)N([C@@H](C)CO)C[C@@H]1C	i	i	i	i
Cc1ccc(S[C@]2(C(=O)NC(C)C)CC(=O)N(C3CCCCC3)[C@@H]2c2ccc(CO)cc2I)cc1	i	i	i	/
CCn1c(SCC(=O)N2CCc3ccccc32)nnc1-c1ccco1	i	i	i	i
C[C@@H]1CN([C@H](C)CO)C(=O)c2cc(NS(=O)(=O)c3ccc(Cl)cc3)ccc2O[C@@H]1CN(C)C(=O)NC1CCCCC1	i	i	i	i
COC(=O)C1=CO[C@@H](O[C@@H]2O[C@H](CO)[C@@H](O)[C@H](O)[C@H]2O)[C@H]2[C@@H]1[C@H](OC(=O)/C=C/c1ccc(O)cc1)C[C@]2(C)OC(C)=O	i	i	i	/
COc1cc2c(cc1NC(=O)CSc1nnc(N)s1)oc1ccccc12	i	i	i	i
C[C@H](CO)N1C[C@H](C)[C@@H](CN(C)Cc2ccc(Cl)c(Cl)c2)Oc2ccc(NC(=O)c3ccncc3)cc2C1=O	i	i	i	/
CC1CC(=O)c2cc(O)c(O)cc2C1 (stereo unspecified)	i	i	i	i
Cc1noc(C)c1NC(=O)N(C)C[C@@H]1Oc2ccc(NS(=O)(=O)c3cn(C)cn3)cc2CC(=O)N([C@@H](C)CO)C[C@H]1C	i	i	i	i
COc1ccc(S(=O)(=O)N(C)C[C@H]2Oc3c(NC(=O)c4ccc(-c5nccs5)cc4)cccc3C(=O)N([C@H](C)CO)C[C@@H]2C)cc1	i	i	i	i
C[C@@H]1CN([C@@H](C)CO)C(=O)c2cccc(NS(=O)(=O)c3ccc(Cl)cc3)c2O[C@@H]1CN(C)S(=O)(=O)c1cccs1	i	i	i	i
O=C(Nc1cccc2ccccc12)C1CCCN1S(=O)(=O)c1ccccc1 (stereo unspecified)	i	i	i	i
C[C@@H]1CN([C@H](C)CO)C(=O)c2cccc(NS(=O)(=O)c3cn(C)cn3)c2O[C@H]1CN(C)Cc1ccc2c(c1)OCO2	i	i	i	i
Cc1cc(C(=O)NCCCn2ccnc2)cs1	i	i	i	i
C[C@@H]1CN([C@H](C)CO)C(=O)c2cccc(NC(=O)Nc3cccc4ccccc34)c2O[C@@H]1CN(C)C(=O)Nc1ccc(C(F)(F)F)cc1	i	i	i	i
NS(=O)(=O)c1ccc(CCNC(=O)c2cc(-c3cccs3)nc3ccccc23)cc1	i	i	i	i
C[C@@H]1CN([C@H](C)CO)C(=O)Cc2cc(NS(=O)(=O)c3ccc(Cl)cc3)ccc2O[C@H]1CN(C)Cc1ccc2c(c1)OCO2	i	i	i	/
COc1ccc(-c2cnc3c(c2)C(=O)N([C@H](C)CO)C[C@H](C)[C@H](CN(C)Cc2ccncc2)O3)cc1	i	i	i	i
C[C@H](CO)N1C[C@H](C)[C@H](CN(C)Cc2ccc(C(=O)O)cc2)OCCCC[C@H](C)Oc2ccc(NC(=O)CCCN(C)C)cc2C1=O	i	i	i	/
C[C@H](CO)N1C[C@H](C)[C@H](CN(C)C(=O)NC2CCCC2)OCc2cn(nn2)CCCC1=O	i	i	i	/
C[C@H](CO)N1C[C@H](C)[C@H](CN(C)C(=O)c2ccccc2)OCCCC[C@H](C)Oc2ccc(NS(C)(=O)=O)cc2C1=O	i	i	i	i
C[C@@H]1CN([C@H](C)CO)C(=O)c2cccc(NC(=O)c3cnccn3)c2O[C@H]1CN(C)C(=O)Nc1ccc(F)cc1	i	i	i	i
COc1cc(C(=O)NCc2cccnc2)c([N+](=O)[O-])cc1OC	i	i	i	i

Brought forward from above: 2 compounds; new compounds follow.
SMILES	mut p53 SMM	Myc binder	STAT3 SMM	ID4 SMM
C[C@@H]1CN([C@H](C)CO)C(=O)c2cccc(NC(=O)c3cnccn3)c2O[C@H]1CN(C)C(=O)Nc1ccc(F)cc1	i	i	i	i
COc1cc(C(=O)NCc2cccnc2)c([N+](=O)[O-])cc1OC	i	i	i	i
C[C@H](CO)N1C[C@H](C)[C@H](CN(C)S(=O)(=O)c2cccs2)Oc2ccc(NC(=O)Cn3cnnn3)cc2C1=O	i	i	i	i
C[C@H]1CCCCO[C@@H](CN(C)Cc2ccc(C(=O)O)cc2)[C@@H](C)CN([C@@H](C)CO)C(=O)c2cc(NC(=O)c3ccncc3)ccc2O1	i	i	i	i
CC(C)NC(=O)Nc1ccc2c(c1)C(=O)N([C@@H](C)CO)C[C@H](C)[C@@H](CN(C)Cc1ccc(C(=O)O)cc1)OCCCC[C@H](C)O2	i	i	i	i
C[C@@H]1CCCCO[C@@H](CN(C)C(=O)Nc2cccc3ccccc23)[C@H](C)CN([C@H](C)CO)C(=O)c2cc(NC(=O)Nc3ccc(F)cc3)ccc2O1	i	+	i	/
C[C@@H]1CN([C@H](C)CO)C(=O)CCCn2nncc2CO[C@@H]1CN(C)Cc1ccccc1	i	i	i	i
C[C@H](CO)N1C[C@H](C)[C@H](CN(C)C(=O)Nc2ccc3c(c2)OCO3)Oc2ccc(N(C)C)cc2CC1=O	i	i	i	i
CC1(C)Oc2ccc3ccc(=O)oc3c2[C@@H](O)[C@H]1O[C@@H]1O[C@H](CO)[C@@H](O)[C@H](O)[C@H]1O	i	i	i	/
C[C@H]1CN([C@@H](C)CO)C(=O)Cc2cc(NC(=O)Nc3cccc4ccccc34)ccc2O[C@@H]1CN(C)C(=O)NC1CCCCC1	i	i	i	i
CC(C)NC(=O)N(C)C[C@@H]1OCCCC[C@H](C)Oc2ccc(NC(=O)C3CCCCC3)cc2C(=O)N([C@H](C)CO)C[C@@H]1C	i	i	i	i
COc1ccccc1Nc1nc(N)nc(CN(C)C2CCCCC2)n1	i	i	i	i
C[C@@H]1CN([C@@H](C)CO)C(=O)c2cc(NS(=O)(=O)c3cn(C)cn3)ccc2O[C@H]1CN(C)Cc1ccccc1	i	i	i	i
Cc1ccc(S(=O)(=O)NCCSc2nnc(Nc3ccccc3)s2)cc1	i	i	i	i
C[C@H](CO)N1C[C@H](C)[C@@H](CN(C)Cc2ccc(C(=O)Nc3ccccc3N)cc2)Oc2ccc(NC(=O)Cc3ccccc3)cc2CC1=O	i	i	i	/
C[C@@H]1CCCCO[C@H](CN(C)S(=O)(=O)c2cccs2)[C@@H](C)CN([C@H](C)CO)C(=O)c2cc(NC(=O)Cc3ccccc3)ccc2O1	i	i	i	i
O=C(NCc1nc2ccccc2[nH]1)C1=C[C@H](C2CCCCC2)C[C@H](OCCCCO)O1	i	i	i	i
CC(=O)Oc1ccccc1N(C(C)=O)S(=O)(=O)c1ccc2ccccc2c1	i	i	i	i
C[C@@H]1CN([C@H](C)CO)C(=O)Cc2cc(NC(=O)Nc3ccccc3)ccc2O[C@@H]1CN(C)C(=O)NC1CCCCC1	i	i	i	i
CC(C)NC(=O)N(C)C[C@@H]1Oc2ccc(NC(=O)CCCN(C)C)cc2CC(=O)N([C@H](C)CO)C[C@@H]1C	i	i	i	i
C[C@H](CO)N1C[C@H](C)[C@@H](CN(C)S(=O)(=O)c2cccs2)Oc2c(NS(=O)(=O)c3ccc(Cl)cc3)cccc2C1=O	i	i	i	i
Cc1noc(C)c1NC(=O)N(C)C[C@@H]1Oc2ccc(N(C)C)cc2CC(=O)N([C@@H](C)CO)C[C@H]1C	i	i	i	i
CCNc1nc(NCC)nc(OCC#N)n1	i	i	i	i
Cc1noc(C)c1NC(=O)N(C)C[C@@H]1Oc2c(NC(=O)c3ccc(-c4nccs4)cc3)cccc2C(=O)N([C@H](C)CO)C[C@H]1C	i	i	i	i
CNC[C@@H]1Oc2c(NS(=O)(=O)c3c(C)noc3C)cccc2C(=O)N([C@H](C)CO)C[C@H]1C	i	i	i	i
C[C@H](CO)N1C[C@H](C)[C@@H](CN(C)C(=O)Cc2ccccc2)OCCCC[C@H](C)Oc2ccc(NS(C)(=O)=O)cc2C1=O	i	i	i	i
COCCOC(=O)N1C(=O)[C@@]2(c3ccccc31)[C@H](c1ccc(OCCO)cc1)N1[C@H](c3ccccc3)[C@H](c3ccccc3)OC(=O)[C@H]1[C@@H]2C(=O)NC[C@H](O)c1ccccc1	i	i	i	i

Another view of part of the listing above:
CC1(C)Oc2ccc3ccc(=O)oc3c2[C@@H](O)[C@H]1O[C@@H]1O[C@H](CO)[C@@H](O)[C@H](O)[C@H]1O
  mut p53 SMM = i | Myc binder = i | STAT3 SMM = i | ID4 SMM = /

C[C@H]1CN([C@@H](C)CO)C(=O)Cc2cc(NC(=O)Nc3cccc4ccccc34)ccc2O[C@@H]1CN(C)C(=O)NC1CCCCC1
  mut p53 SMM = i | Myc binder = i | STAT3 SMM = i | ID4 SMM = i

CC(C)NC(=O)N(C)C[C@@H]1OCCCC[C@H](C)Oc2ccc(NC(=O)C3CCCCC3)cc2C(=O)N([C@H](C)CO)C[C@@H]1C
  mut p53 SMM = i | Myc binder = i | STAT3 SMM = i | ID4 SMM = i

(next part)
SMILES	mut p53 SMM	Myc binder	STAT3 SMM	ID4 SMM
C[C@@H]1CN([C@H](C)CO)C(=O)Cc2cc(NS(=O)(=O)c3cccs3)ccc2O[C@@H]1CN(C)S(=O)(=O)c1ccccc1	i	i	i	i
Cc1noc(C)c1C(=O)NCCCN1CCCC1=O	i	i	i	i
Cc1ccc(-c2cn3c4c(sc3n2)CCCC4)cc1	i	i	i	i
C[C@H](CO)N1C[C@H](C)[C@H](CN(C)CC2CC2)Oc2ccc(NC(=O)Cc3cn(C)c4ccccc34)cc2CC1=O	i	i	i	i
C[C@H]1CN([C@@H](C)CO)C(=O)c2cc(NC(=O)Nc3ccc4c(c3)OCO4)ccc2O[C@H]1CN(C)S(=O)(=O)c1ccc(F)cc1	i	i	i	i
C=CC(C)(CC/C=C(\C)C(O)CC=C(C)C)OC1OC(CO)C(O)C(O)C1O (stereo unspecified)	i	i	i	/
CCc1ccccc1NC(=O)CSc1nc2ccc(C(=O)c3ccccc3)cc2[nH]1	i	i	i	i
COc1cc2c(cc1O)C(c1cccs1)N(Cc1cccc(OC(F)(F)F)c1)CC2 (stereo unspecified)	i	i	i	i
C[C@@H]1CN([C@@H](C)CO)C(=O)Cc2cc(NS(=O)(=O)c3ccccc3)ccc2O[C@@H]1CN(C)C(=O)Nc1ccccc1	i	i	i	i
O=C1C(=O)N(CCc2ccccc2)C(c2ccco2)C1C(=O)c1cc2ccccc2o1 (stereo unspecified)	i	i	i	i
C[C@H]1CN([C@@H](C)CO)C(=O)c2cccc(NS(=O)(=O)c3ccc(F)cc3)c2O[C@H]1CN(C)C(=O)NC1CCCCC1	i	i	i	i
Cc1ccc2c(CC(=O)NCc3ccco3)coc2c1C	i	i	i	i
Cc1cc(C)c(NC(=O)CSc2nncc3ccccc23)c([N+](=O)[O-])c1	i	i	i	i
COc1ccc(CN(C)C[C@@H]2Oc3c(NC(=O)Nc4ccc(OC)cc4)cccc3C(=O)N([C@H](C)CO)C[C@@H]2C)cc1	i	i	i	i
C[C@@H]1CN([C@@H](C)CO)C(=O)c2cc(NS(=O)(=O)c3ccccc3)ccc2O[C@H]1CN(C)C(=O)Nc1ccc(C(F)(F)F)cc1	i	i	i	i
C[C@H](CO)N1C[C@H](C)[C@H](CN(C)C(=O)Nc2ccnc(N3CCOCC3)c2)OCc2cn(nn2)CCCC1=O	i	i	i	i
C[C@@H]1CCCCO[C@@H](CN(C)C(=O)Nc2ccccc2)[C@H](C)CN([C@@H](C)CO)C(=O)c2cc(NC(=O)c3ccccc3)ccc2O1	i	i	i	i
COc1ccc(S(=O)(=O)N(C)C[C@H]2Oc3c(NC(=O)Nc4c(C)noc4C)cccc3C(=O)N([C@@H](C)CO)C[C@@H]2C)cc1	i	i	i	i
C[C@H](CO)N1C[C@H](C)[C@H](CN(C)C(=O)Nc2cccc3ccccc23)Oc2ccc(NS(=O)(=O)c3cccs3)cc2CC1=O	i	i	i	i
C[C@@H]1CN([C@@H](C)CO)C(=O)c2cccc(NC(=O)c3ccncc3)c2O[C@H]1CN(C)Cc1ccc(C(=O)O)cc1	i	i	i	i
C=CC(C)(C)[C@@]12C[C@H]3C(=O)N[C@H]([C@@H](C)CC)C(=O)N3[C@@H]1Nc1ccccc12	i	i	i	/
Cc1noc(C)c1S(=O)(=O)Nc1ccc2c(c1)C(=O)N([C@@H](C)CO)C[C@@H](C)[C@@H](CN(C)C)OCCCC[C@H](C)O2	i	i	i	i
C[C@H](CO)N1C[C@H](C)[C@@H](CN(C)S(C)(=O)=O)Oc2ccc(NC(=O)C3CC3)cc2CC1=O	i	i	i	/
Cc1noc(C)c1S(=O)(=O)Nc1cccc2c1O[C@@H](CN(C)S(=O)(=O)c1cn(C)cn1)[C@@H](C)CN([C@@H](C)CO)C2=O	i	i	i	i
CNC[C@H]1Oc2ccc(NC(=O)c3ccncc3)cc2C(=O)N([C@H](C)CO)C[C@@H]1C	i	i	i	+
COc1ccc(CN(C)C[C@@H]2OCc3cnnn3CCCC(=O)N([C@H](C)CO)C[C@H]2C)cc1	i	i	i	/
